# From PubChem
# 2A StopGo: High Throughput Screening for Foot and Mouth Disease Virus Antivirals; human cells with a luciferase reporter of 2A StopGo recoding; control for the full effect not named in the record; Potency, µM (highest dose often 57.9 µM), without a hit: at the highest dose signal change, negative = less light; 1.2% of 410,000 active; AID 1159524, 2015; active = well fitted falling curve with a large enough effect; inconclusive = small, poorly fitted or top-dose-only effect; inactive = no such curve, though single readings can be large or run the other way; tested in HEK293T cells; also: % is scaled to controls: 0 for no effect and ±100 for the full control effect; nearly all actives have a fitted effect of over 45% in size; luciferase light after 4 h
# Cruzain inh Det: qHTS Assay for Promiscuous and Specific Inhibitors of Cruzain (with detergent); purified cruzain, Z-FR-AMC fluorescence, 0.01% Triton; Potency, µM, without a hit: max response, negative = inhibition, usual class: inhibitors; 0.43% of 200,000 active;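 also: plate controls were neutral wells for no effect and buffer without enzyme for full effect; nearly all actives have a fitted effect of over 40% in size; top concentration of the series not given in the record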
# Target sequence (P25779 123-467 limits assumed): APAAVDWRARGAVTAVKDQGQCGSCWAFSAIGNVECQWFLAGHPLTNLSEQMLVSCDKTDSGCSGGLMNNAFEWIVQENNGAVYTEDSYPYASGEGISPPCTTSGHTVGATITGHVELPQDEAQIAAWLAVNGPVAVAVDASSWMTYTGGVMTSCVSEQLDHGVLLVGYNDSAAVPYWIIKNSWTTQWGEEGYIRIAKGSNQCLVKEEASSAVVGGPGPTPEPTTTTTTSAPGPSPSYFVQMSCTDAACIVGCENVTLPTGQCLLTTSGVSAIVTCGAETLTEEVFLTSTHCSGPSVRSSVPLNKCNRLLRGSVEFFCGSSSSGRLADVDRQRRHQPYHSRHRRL
#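 Compounds were screened in titration against cruzain (1.5 nM) with 0.01% Triton X-100 to counter colloidal aggregation. Activity was the AMC fluorescence increase over 60 s after adding 2 uM Z-FR-AMC at pH 5.5.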
# MARV entry inh: qHTS for inhibitors of binding or entry into cells for Marburg Virus; Marburg virus pseudotyped entry inhibition, cell reporter; control for the full effect not named in the record; about a third of the inactives were read at about 46 µM; Potency, µM (highest dose often 37.8 µM), for the others: top-dose activity change, negative = inhibition, most hits filed as inhibitors; 1.8% of 300,000 active; AID 540276, 2011; active = well fitted inhibition curve with a large enough effect; inconclusive = small, poorly fitted or top-dose-only effect, or effect the other way; inactive = flat fitted curve, though single readings scatter; tested in HEK293 cells; about a fifth of its hits are not listed in these tables; also: % is scaled to controls: 0 for no effect and ±100 for the full control effect; luciferase read-out
# Cruzain noTriton: qHTS Assay for Promiscuous and Specific Inhibitors of Cruzain (without detergent); Potency, µM, for the others: max response, negative = inhibition, hits mostly inhibitors; Cruzipain (Trypanosoma cruzi), P25779; 2.3% of 200,000 active; AID 1476, 2009; purified cruzain, Z-FR-AMC fluorescence, no detergent;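 also: plate controls were enzyme without inhibitor for no effect and buffer without enzyme for full effect; nearly all actives have a fitted effect of over 40% in size; top concentration of the series not given in the record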
#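 Purified cruzain at 1.5 nM, pre-incubated 15 min with compound at room temperature in 100 mM sodium acetate pH 5.5, 5 mM DTT, 0.00005% Triton X-100. Reaction started with 2 uM Z-FR-AMC; AMC fluorescence increase over 60 s gives rate.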
# NS1 inh: qHTS Assay for Inhibitors of Influenza NS1 Protein Function; AID 2326, 2010; 0.4% of 270,000 active; S. cerevisiae slowed by influenza A NS1, growth recovery by OD600; Potency, µM (series often up to 46.1 µM), for inactives: top-dose activity, positive = more growth; active means well fitted rising curve with a large enough effect; inconclusive means small, poorly fitted or top-dose-only effect; inactive means no such curve, though single readings can be large or run the other way; also: nearly all actives have a fitted effect of over 50% in size
#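 OD600 was taken as the measure of yeast growth restored by compound in an NS1-expressing S. cerevisiae strain. Cells had been washed out of glucose medium and diluted 1:100 into galactose -URA medium, pH 6.0.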
# SARS PLpro yeast: qHTS of Yeast-based Assay for SARS-CoV PLP; Potency, µM (top dose mostly 32.9 µM), for the others: at the top dose activity, positive = growth rescue; 0.19% of 330,000 active; S. cerevisiae expressing SARS-CoV PLpro, growth rescue; control for the full effect not named in the record; AID 485353, 2010; active means well fitted rising curve with a large enough effect; inconclusive means small, poorly fitted or top-dose-only effect; inactive means no such curve, though single readings can be large or run the other way; also: 0% is about no effect; nearly all actives have a fitted effect of over 55% in size; growth read by luminescence after 48 h
# Lassa entry inh: qHTS for Inhibitors of binding or entry into cells for Lassa Virus; Lassa virus pseudotype entry inhibition, cell reporter; control for the full effect not named in the record; Potency, µM (titrated, usually from 37.9 µM), for inactives: top-dose activity change, negative = inhibition, usual class: inhibitors; 1.2% of 300,000 active; AID 540256, 2011; active means well fitted inhibition curve with a large enough effect; inconclusive means small, poorly fitted or top-dose-only effect, or effect the other way; inactive means flat fitted curve, though single readings scatter; tested in HEK293 cells; also: % is scaled to controls: 0 for no effect and ±100 for the full control effect; nearly all actives have a fitted effect of over 50% in size; luciferase read-out
# RE007 growth inh: qHTS Assay for Inhibitors of the HIV-1 protein Vpr; S. pombe RE007 Vpr strain, BacTiter-Glo ATP luminescence, 24 h; control for the full effect not named in the record; Potency, µM (series often up to 92.2 µM), for inactives: at the top dose activity change, negative = less growth; 0.21% of 360,000 active; AID 651644, 2012; active = well fitted falling curve with a large enough effect; inconclusive = small, poorly fitted or top-dose-only effect; inactive = no such curve, though single readings can be large or run the other way;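 also: % is scaled to controls: 0 for no effect and ±100 for the full control effect; nearly all actives have a fitted effect of over 50% in size; the assay follows cell death caused by Vpr and the record does not say whether a fall means rescue or toxicity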
#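 Fission yeast strain RE007, carrying one chromosomally integrated HIV-1 vpr copy, was seeded at OD 0.01 in PMG+AL medium with 23 nL pinned compound. After 24 h at 30 °C and 99% humidity, viability was read by BacTiter-Glo luminescence.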
# * hit, by the source's call; u = inconclusive; x = no result given; & = joins results of further samples; [ ] = dose if it differs, or a comment. Unless noted, calls follow the shape of the dose curve; as a rule, active = well fitted curve in the direction sought with a large enough effect; inconclusive = small, poorly fitted or top-dose-only effect, or another doubt; inactive = no such curve, though single readings can be large; an effect the other way counts as inactive or inconclusive. Potency is read from the fitted curve at half-maximal effect.
SMILES,2A StopGo,Cruzain inh Det,MARV entry inh,Cruzain noTriton,NS1 inh,SARS PLpro yeast,Lassa entry inh,RE007 growth inh
COc1ccc2c(c1)c(=O)oc1c(C)c(OCC(=O)N3CCc4ccccc4C3)ccc12,-24%,-3.4%,u,u,4%,1%,u,0%
CCc1c(C)nc2c(C)cccc2c1SCCC#N,-23%,x,-27%,x,-5%,-1%,-6%,-11%
O=C(N/N=C/c1ccc2c(c1)OCO2)c1ccc(Cl)cc1Cl,33%[activator],x,u,x,-26%,-8%,-24%[46.1 µM],-3%
Cc1cccc(Nc2nnc(-n3nc(C)cc3C)c3ccccc23)c1,55%[activator],-4.4%,u,-15%,x,x,u,x
Cc1cc(C)cc(Nc2c(F)c(F)c(F)c(F)c2C(=O)O)c1,-17%,x,u,x,x,2%,12%[46.1 µM],10%
Cc1ccc(CC(=O)Nc2ccc(S(=O)(=O)Nc3ncccn3)cc2)cc1,23%,x,u,x,5%,1%,19%[46.1 µM],2%
CN(Cc1c(C(=O)N/N=C/c2ccc(F)cc2)nnn1-c1nonc1N)C1CCCCC1,-12%,x,x,x,-1%,1%,x,-6%
CCOc1cc(S(=O)(=O)n2c(C)nc3ccccc32)ccc1F,-22%,2.0%,x,-9%,2%,0%,-27%,7%
COc1ccc(Cl)cc1C(=O)Nc1ccc(OCC(=O)N2CCOCC2)cc1,-12%,x,0%,x,-3%,-1%,13%,-1%
COc1ccc(Br)cc1S(=O)(=O)Nc1cccc(C)n1,102%[activator],x,-1%[46.1 µM],x,3%,0%,-6%,-13%
Cc1ccc(S(=O)(=O)c2cnc(SCC(=O)Nc3ccc4c(c3)OCCO4)[nH]c2=O)cc1Cl,-6%,-18%,x,u,x,x,6%[46.1 µM],x
S=C(NCCCn1ccnc1)Nc1cccc(Cl)c1,1%,x,-1%[46.1 µM],x,3%,16%,14%[46.1 µM],-1%
Cc1cccc(Cn2cccc(C(=O)Nc3nc4ccccc4s3)c2=O)c1,-19%,3.9%,x,4%,x,x,11%[46.1 µM],x
CCCn1c(N)c(C(=O)CSc2nc(C3CC3)n(-c3ccccc3)n2)c(=O)[nH]c1=O,1%,x,-19%,x,x,1%,5%,3%
CCc1nn(CCCC(=O)N2CCN(c3cc(Cl)ccc3C)CC2)c(=O)c2cc3occc3n12,-18%,-6.3%,13%[46.1 µM],u,x,x,-14%[46.1 µM],x
O=C(NCc1nnc(SCC(=O)N2CCCc3ccccc32)n1-c1ccccc1)c1cccc2ccccc12,0%,-6.6%,u,0%,u,20%,u,7%
COc1ccc(NC(=O)CSc2nc(C)cs2)cc1OC,-20%,1.4%,-1%,7%,-16%,4%,8%,0%
CCN(c1ccccc1C(=O)O)S(=O)(=O)c1ccc2[nH]c(=O)[nH]c2c1,9%,x,x,x,0%,-1%,x,2%
O=C(CSc1nc2ccccc2o1)Nc1nc2ccccc2s1,20%,-2.0%,-2%,-10%,-5%,4%,u,-9%
COCCn1c(SCC(=O)NCC2CCCO2)nc2c([nH]c3ccccc32)c1=O (stereo not drawn),2%,x,-4%,x,6%,-2%,-23%,-7%
COc1cc(Cl)c(CC(=O)c2c[nH]c3ccccc23)cc1OC,-4%,3.0%,-13%[46.1 µM],1%,-6%&5%,-1%,5%[46.1 µM],8%
O=C(Oc1cccc(-n2cnnn2)c1)C1CCCCC1,-5%,-1.2%,-19%,9%,-17%,-2%,2%,1%[3.69 µM]
CC1CCN(C(=O)CSc2nncn2-c2ccccn2)CC1,-4%,2.4%,0%,-7%,4%,1%,9%,15%[3.69 µM]
O=C(NCc1ccc(Cl)cc1)c1ccc(Cn2cc(C(F)(F)F)ccc2=O)cc1,-18%,-7.8%,25%,5%,24%,5%,5%,-5%
CCOc1cc(C#N)c(NC(=O)c2ccco2)cc1OCC,-1%,2.1%,u,4%,3%,5%,-29%,-3%
SMILES,2A StopGo,Cruzain inh Det,MARV entry inh,Cruzain noTriton,NS1 inh,SARS PLpro yeast,Lassa entry inh,RE007 growth inh
CC(C)CNC(=S)N1CCC(NC(=O)c2ccco2)CC1,13%,x,12%[46.1 µM],x,x,-3%,1%[46.1 µM],14%
CC1CN(C2CCCCC2)C(=O)NC1=O (stereo not drawn),0%,x,-13%[46.1 µM],x,x,x,-1%[46.1 µM],-4%
COc1cc(SC)ccc1C(=O)N1CCN(c2ccccc2OC)CC1,-1%,x,u,x,-4%,0%,u,-5%
O=C(CSc1n[nH]c(-c2ccccc2Br)n1)NCCN1C(=O)CSC1=O,u,-0.9%,u,16%,-7%,-21%,-2%,13%
Cc1ccc(CN2CCSc3ccc(C(=O)NCc4ccco4)cc32)cc1,26%,x,u,x,x,-1%,u,2%
COC(=O)C1=C(CS(=O)(=O)c2cc(OC)ccc2OC)NC(=O)NC1c1ccc(O)c(OC)c1 (stereo not drawn),0%,x,x,x,9%,6%,x,-4%
CC(C)(C)C(=O)NC(=S)Nc1ccccc1C(=O)NC1CCCCC1,0%,x,x,x,2%,0%,x,-5%
COc1ccc(NC(=S)Nc2cccc(C(C)=O)c2)cc1OC,16%,x,33%[14.2 µM],x,5%,0%,1%,-14%
Cc1cccc(-c2noc(CNC(=O)c3ccco3)n2)c1,26%&10%,-3.6%,u,-18%,14%,-2%,1%&2%[46.1 µM],10%
Cc1ccc(C)c(NC(=O)CSc2ncc3c(n2)-c2ccccc2N(Cc2ccccc2C)S3(=O)=O)c1,-18%,1.5%,x,-25%,x,x,20%[46.1 µM],x
Fc1ccc(-n2ncc3c(SCc4cccnc4)ncnc32)cc1,-7%,x,u,x,1%,0%,u,5%
O=C(CSc1nc2ccccc2s1)NCCOc1ccccc1,25%,-5.5%,u,0%,-4%,-22%,9%,0%
Cc1cccc(C(c2sc3nc(-c4ccco4)nn3c2O)N2CCN(Cc3ccccc3)CC2)c1 (stereo not drawn),-5%,-4.6%,x,25%,x,x,-5%[46.1 µM],x
Cc1cccc(NC(=O)c2c(F)c(F)c(F)c(F)c2F)c1,8%,-3.2%,0%[46.1 µM],-2%,3%,-10%,-2%,-5%
Cc1ccc(C2C(C(=O)c3sc(-c4ccccc4)nc3C)=C(O)C(=O)N2CCN(C)C)o1 (stereo not drawn),22%,x,u,x,-8%,x,u,-2%
CC(C)(C)c1ccc(OCCn2nc(C(=O)O)c3ccccc3c2=O)cc1,u,x,3%[46.1 µM],x,14%,-2%,-19%[46.1 µM],6%
O=C(CCN1CCN(c2ccccc2)CC1)c1ccc(Cl)cc1,-20%,x,x,x,-6%,-11%,x,u
CCOC(=O)C1(Cc2ccccc2C)CCCN(C(=O)CSC)C1 (stereo not drawn),8%,x,-5%[46.1 µM],x,x,x,-2%[46.1 µM],9%
Cn1cccc1C1CCCN1CC(=O)Nc1c(Cl)cc(Cl)cc1Cl (stereo not drawn),22%,x,-25%[46.1 µM],x,x,-6%,-2%[46.1 µM],-17%
CS(=O)(=O)N1N=C(c2ccco2)CC1c1ccccc1Cl (stereo not drawn),7%,x,-2%[46.1 µM],x,1%,-1%,28%[46.1 µM],7%
COc1ccc(CCNS(=O)(=O)CCNC(=O)c2ccc(OC)cc2)cc1,0%,x,3%[46.1 µM],x,x,0%,0%,15%
OC(CN1CCN(c2ccccc2Cl)CC1)c1ccccc1 (stereo not drawn),0%,x,u,x,-4%,0%,-26%[46.1 µM],-4%
CN(C)c1ccc(CNC(=O)Cn2c(=O)oc3cc(S(=O)(=O)N4CCCCCC4)ccc32)cc1,u,-6.6%,x,6%,x,x,u,x
Cc1ccc(S(=O)(=O)N(C)Cc2cc3ccccc3[nH]c2=O)cc1,-6%,5.3%,-11%,-3%,-21%,1%,6%,-8%
COc1ccccc1-c1cc(C(F)(F)F)nc(S(=O)(=O)CCCC(=O)Nc2cc(C)ccc2O)n1,-17%,-4.7%,u,-1%,x,x,-12%[46.1 µM],x
SMILES,2A StopGo,Cruzain inh Det,MARV entry inh,Cruzain noTriton,NS1 inh,SARS PLpro yeast,Lassa entry inh,RE007 growth inh
Cc1ccc(C)c(S(=O)(=O)Nc2ccc(-n3cnnn3)cc2)c1,85%[activator],x,2%,x,x,7%,17%,-2%
NC(=O)C1(C(N)=O)OC1c1ccc(Cl)cc1Cl (stereo not drawn),-14%,x,x,x,-3%,0%,x,-4%
C=CCN1C(=O)C(C)(C)N(C(=O)c2cccc([N+](=O)[O-])c2)c2ccccc21,u,x,x,x,-19%,-2%,x,2%
COc1ccc(C(=O)N/C(=C/c2ccco2)C(=O)NC2CCS(=O)(=O)C2)cc1 (stereo not drawn),7%,x,13%[46.1 µM],x,x,-2%,-1%,5%
CC1(c2ccc([N+](=O)[O-])cc2)CC(C)(C)N(C(=O)c2ccccc2)c2ccccc21 (stereo not drawn),x,-2.0%,2%,-4%,14%,4%,1%,x
CC1CCCCN1CCCNC(=O)c1nn(C)c2c1CS(=O)(=O)c1ccccc1-2 (stereo not drawn),-12%,x,x,x,-7%,-5%,x,-2%
CC(C)c1ccccc1NC(=S)NC(C)c1ccccc1 (stereo not drawn),-6%,-4.5%,u,0%,-30%,u,-29%,16%
O=C(c1ccccc1)N1CCCCC1CCN1CCCCC1 (stereo not drawn),-7%,0.4%,8%[46.1 µM],-11%,x,x,-4%[46.1 µM],x
Cc1ccc(C(=O)CSc2ccc(-c3ccncc3)nn2)cc1,-30%,x,7%[46.1 µM],x,x,1%,12%,4%
C[C@H](NC(=O)c1ccccc1Cl)C(=O)NCc1cccs1,-18%,x,20%,x,11%,3%,10%,14%
CC(=O)Nc1ccc(C(=O)N/C(=C/c2ccccc2)C(=O)Nc2cccc(C(=O)O)c2)cc1,-5%,x,2%[46.1 µM],x,2%,-1%,9%[46.1 µM],7%
Cc1cccc(NC(=S)Nc2c(C)n(C)n(-c3ccccc3)c2=O)c1C,-1%,3.2%,u,14%,1%,15%,0%,-17%
O=C(NCc1ccco1)C(=O)c1cn(CC(=O)N2CCCCCC2)c2ccccc12,-8%,x,-1%[46.1 µM],x,x,0%,u,-1%
O=C(NCc1ccco1)c1ccc2ccccc2n1,41%[activator],x,6%[46.1 µM],x,-57%,-4%,-15%,-11%
Cc1ccc(-c2nc(C)c(C(=O)O)s2)cc1,u,x,u,x,-46%,-1%,u,12%
O=C(/C=C/c1cccc(F)c1)N(c1ccccn1)C1CCCCC1,-13%,-1.9%,0%,-10%,-19%,6%,x,-3%
